From PubChem BioAssay
Rce1 inh: inhibitors of yeast Ras-converting enzyme; calls only; actives 0.27% (n = 290,000); yeast membranes, quenched prenylated peptide cleavage fluorescence; Q03530;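 active = fall in fluorescence gain of 50% or more versus controls, with final raw signal at or below 3038400; inconclusive = same 50% fall but final raw signal above 3038400; inactive = fall in fluorescence gain under 50%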;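 also: plate controls were neutral control wells for no effect and wells lacking membranes for full effect; tested at 10 µM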
UUG fidelity: yeast start codon fidelity modulation; S. cerevisiae UUG-firefly luciferase reporter, luminescence/redox ratio; activity score, % at 18.7 µM; actives 0.13% (n = 350,000); AID 602363;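 active = replicate mean at a twofold rise or more, about +100% in these data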;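 also: firefly luciferase made from a UUG start codon reports start codon fidelity; reporter light over untreated wells divided by growth signal over untreated wells; some hits fall short of that in this replicate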
eIF4H inh: inhibitors of RNA binding by human eIF4H; Q15056; eIF4H fluorescence polarization binding assay; inhibition, % at 35 µM; actives 0.94% (n = 290,000);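 active = 50% or more with normal probe brightness, or confirmed in later tests; inconclusive = above 50% with abnormal brightness, or retests that disagree; inactive = below 50% or failed in later tests; about a fifth of its hits are not listed in these tables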;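 also: calls also rest on retests at 20 µM and on dose response follow-up; 0% = protein and probe with vehicle and 100% = probe without protein; strong numbers were not always called active; many hits fall short of the cut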
PABP FP inh: blocks human PABP binding to poly(A) RNA; inhibition, % at 35 µM; actives 1% (n = 290,000); fluorescence polarization; P11940;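 active = 50% or more with normal probe brightness, or confirmed in later tests; inconclusive = above 50% with abnormal brightness, or retests that disagree; inactive = below 50% or failed in later tests; about a fifth of its hits are not listed in these tables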;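 also: calls also rest on retests at 20 µM and on dose response follow-up; controls were probe without protein and protein plus probe with vehicle; some compounds called inactive have numbers as strong as hits; many hits fall short of the cut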
Target sequence (P11940 whole entry, looked up): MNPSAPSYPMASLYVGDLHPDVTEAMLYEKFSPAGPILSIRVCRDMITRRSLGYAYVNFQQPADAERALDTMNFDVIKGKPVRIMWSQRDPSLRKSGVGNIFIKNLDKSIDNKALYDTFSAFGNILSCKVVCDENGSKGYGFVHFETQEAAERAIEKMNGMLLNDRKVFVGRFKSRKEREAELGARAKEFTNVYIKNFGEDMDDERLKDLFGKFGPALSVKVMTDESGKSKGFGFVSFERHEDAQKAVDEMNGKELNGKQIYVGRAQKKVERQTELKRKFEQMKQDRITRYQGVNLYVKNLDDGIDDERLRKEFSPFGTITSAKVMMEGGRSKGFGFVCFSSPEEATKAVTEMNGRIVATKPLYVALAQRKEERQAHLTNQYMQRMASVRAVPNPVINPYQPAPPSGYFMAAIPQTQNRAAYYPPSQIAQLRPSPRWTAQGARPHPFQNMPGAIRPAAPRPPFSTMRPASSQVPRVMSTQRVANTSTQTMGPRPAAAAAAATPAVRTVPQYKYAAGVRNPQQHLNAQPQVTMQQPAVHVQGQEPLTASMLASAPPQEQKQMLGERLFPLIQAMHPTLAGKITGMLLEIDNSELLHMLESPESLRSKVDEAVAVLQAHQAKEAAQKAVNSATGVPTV
MT1-MMP act inh: MT1-MMP (human) activation inhibition | HT1080 RFP-PRO-GFP cells, GFP/RFP ratio fluorescence, overnight; percent of plate control window, DMSO zero | actives 0.061% (n = 360,000) | GFP/RFP ratio change, % at 20 µM;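 active = GFP/RFP ratio change of at least 30% with cell ATP level not reduced by more than half and red fluorescence within 50% of control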; also: strong numbers were not always called active
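Test system: HT1080 RFP-PRO-GFP cells; Benchmarks: DMSO and RFP-L50D-GFP cell wells; Timing: cells overnight before dosing, compound overnight, 37 °C, 5% CO2; Compound: one 20 µM compound dose with 1% DMSO; Read-out: GFP/RFP fluorescence ratio.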
CSC inhib: cancer stem cell inhibition; actives 1.1% (n = 300,000); AID 2717; inhibition, % at 7.5 µM; cancer stem cell-like cells viability, luminescence;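 active = mean at 75% or more and at least half the replicates too; inconclusive = mean and replicates disagree; tested in HMLE shEcad cells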;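 also: 0% = median of negative and 100% = median of positive control wells; the first replicate is given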
HIV Env fusion: HIV envelope-mediated fusion inhibition. HeLa-JRFL Env/CEM21 cell fusion, luciferase. inhibition, % at 12.3 µM. actives 1.1% (n = 360,000);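 active = mean replicate inhibition score of at least 50 and every replicate individually at or above 50; inconclusive = only one of the two criteria met; inactive = mean below 50 and not all replicates reaching 50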;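 also: 0% = plate neutral controls and 100% = maraviroc near 300 nM; one replicate is shown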
eIF4H inh retest: also measured in eIF4H inh; calls as there; inhibition, %; compound at 20 µM; confirmation average;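 mean of two retest wells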
PABP FP inh retest: further read-out of PABP FP inh, marked with its call; inhibition, %; compound at 20 µM; confirmation repeats;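 mean of two retest wells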
MT1-MMP act inh RFP: also measured in MT1-MMP act inh; calls as there; RFP signal change, %; measured here: RFP expression control read;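 0 = vehicle wells; hits needed this value within 50% of zero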
Numbers without * were called inactive; i = inactive; ? = inconclusive; · = no result given. No enrichment for hits, and some 2.9% of all compounds hit somewhere here.

SMILES	Rce1 inh	UUG fidelity	eIF4H inh	PABP FP inh	MT1-MMP act inh	MT1-MMP act inh RFP	CSC inhib	HIV Env fusion	others
COCCC(=O)N1CCC(Oc2ccc(C(=O)NCCc3cnn(C)c3)cc2)CC1	i	-7	-7	14	-6	0	2	2
Cn1c(SCC(=O)NCc2ccco2)nnc1-c1c[nH]c2ccccc12	i	-2	-4	-3	3	-1	-4	-162
CCCCCCCCOC1OC(CO)C(O)C(O)C1NC(C)=O (stereo not given)	i	-3	-7	0	0	4	-1	12
COc1ccc(C2CC(=O)n3c(nc4ccccc43)S2)cc1OC (stereo not given)	i	-9	1	-2	3	5	-12	·
COc1ccc(C2(c3ccc(OC)cc3)NC(=O)N(CC(=O)Nc3ccc(N4CCOCC4)cc3)C2=O)cc1	i	·	·	·	-1	0	-1	-33
C[C@@H](C(=O)NCc1ccccc1)[C@H]1C[C@]1(C)[C@H](NC(=O)OCc1ccccc1)c1ccccc1	i	-1	-9	2	0	-5	-4	?
COC(=O)c1[nH]c2ccc(Cl)cc2c1NC(=O)c1ccccc1[N+](=O)[O-]	i	·	3	-8	3	3	-1	-45
CS(=O)(=O)c1ccc2nc(NC(=O)CN3C(=O)NC4(CCCC4)C3=O)sc2c1	i	26	41	-10	-1	0	-12	20
Nc1c(N=Nc2cccc(Cl)c2)c(=O)[nH]n1-c1ccccc1	i	-16	-6	3	3	3	-4	·
O=C(Cc1ccccc1F)Nc1nc(-c2cccnc2)cs1	i	·	2	4	-3	-1	-8	11
CCOC(=O)c1cn(CC(=O)Nc2ccc3c(c2)OCCO3)nn1	·	-20	-4	0	3	4	-2	-15
N=c1c(C(=O)NCC2CCCO2)cc2c(=O)n3ccccc3nc2n1Cc1ccccc1Cl (stereo not given)	i	-11	-9	-1	-5	4	-12	14
O=C(NC(=S)N1CCOCC1)c1ccccc1Cl	i	-12	6	-10	-2	4	-1	-9
CCC(=O)N(Cc1cc2cccc(C)c2[nH]c1=O)c1ccccc1OC	·	·	-6	6	9	1	-17	·
CC#CCc1cc2ccccc2c(=O)o1	i	-26	-7	6	3	5	-3	·
CN1CCC(=NNc2ccc(S(=O)(=O)N3CCOCC3)cc2[N+](=O)[O-])CC1	i	·	-1	28	0	-1	14	5
N/C(=N\OC(=O)CC1CCCCC1)c1ccccc1	i	·	-1	6	-3	-3	-6	-18
CCOc1ncccc1C(=O)NCCc1ccc(Cl)cc1	i	-4	3	11	1	0	2	-7
CCOC(=O)C(NC(C)=O)C(=O)Nc1ccc(C(C)C)cc1 (stereo not given)	i	·	5	-5	2	-3	-5	14
COc1ccc([N+](=O)[O-])cc1NC(=O)C(C)OC(=O)CN1C(=O)C2CC=CCC2C1=O (stereo not given)	i	-16	·	·	3	4	-12	·
CCCSCCCNC(=O)c1ccccc1NC(=O)C1=CSCCO1	i	-14	4	-3	2	2	-3	-2
O=C1NN(c2ccc(Cl)cc2)C(=O)/C1=C\c1ccc(-c2cccc(C(=O)O)c2)o1	·	·	79	3	-7	4	·	3	eIF4H inh retest=-4;PABP FP inh retest=11
O=C(C1CCN(S(=O)(=O)c2cnc[nH]2)CC1)N1CCN(Cc2ccc3c(c2)OCO3)CC1	·	-18	-4	-5	0	2	5	·
COc1cc(C(=O)NCC2CCCO2)cc(OC)c1OC (stereo not given)	i	-20	-6	1	2	2	0	-82
Cc1ccc(COc2ccsc2C(=O)NNC(N)=S)cc1	i	·	7	8	2	1	18	-20

Next records follow.
SMILES	Rce1 inh	UUG fidelity	eIF4H inh	PABP FP inh	MT1-MMP act inh	MT1-MMP act inh RFP	CSC inhib	HIV Env fusion	others
CC1=Nn2c(nnc2-c2ccc(F)cc2)SC1	i	-9	-12	-10	3	7	0	-31
Cc1cc(C(=O)N2CCN(S(C)(=O)=O)CC2)cs1	i	-8	0	1	2	2	-10	·
Cc1cc(C)c(S(=O)(=O)c2ccc(F)cc2)c(C)c1	·	-8	·	·	-3	0	·	4
CC(Sc1nnnn1C)C(=O)NC(=O)NC1CCCCC1 (stereo not given)	i	·	3	6	1	-2	-3	-48
CCOc1ccc(CCNC(=O)CCc2nnc3ccc(N4CCCCC4)nn23)cc1OCC	i	-10	-18	-11	1	1	·	-11
O=[N+]([O-])c1ccc(-c2ccc(/C=N/n3cnnc3)o2)c(Br)c1	i	-24	-7	-2	-5	-5	2	-1
CCC(CC)C(=O)NCCNC(=O)C(CC)CC	i	-17	-4	-1	1	1	-11	-40
CSCC[C@H](NC(=O)C1CCN(C(=O)[C@@H](N)Cc2ccccc2)CC1)C(=O)O	i	-1	3	1	3	4	-3	7
CCOC(=O)c1ccc(NC(=O)N2CCCCC2)cc1	i	-25	-4	-1	1	4	1	·
C/C(=N/OC(=O)c1c(-c2c(Cl)cccc2Cl)noc1C)c1cnccn1	·	-3	5	-7	6	-3	9	-1
CC(Oc1ccc(Cl)cc1Cl)c1nc(-c2ccc(NC(=O)c3ccncc3)cc2)no1 (stereo not given)	i	·	6	-4	-12	-27	83*	·
Cc1ccc(S(=O)(=O)N2[C@@H](c3ccc(C#N)cc3)C(C(=O)O)=C[C@H]2CC2CCCC2)cc1	·	2	·	·	6	1	·	9
O=C(Nc1c(-c2ccccc2)[nH][nH]c1=O)c1cccc(C(F)(F)F)c1	·	-14	·	·	0	-1	·	19
CCn1c(SCC(=O)N/N=C/C=C/c2ccco2)nnc1-c1ccccc1	i	·	95	4	-3	4	1	3	eIF4H inh retest=26;PABP FP inh retest=31
CNS(=O)(=O)c1cccc(C(=O)OCC(=O)NC2CCCC2)c1	i	-6	-6	-3	1	1	-20	28
C[C@]12CCC(O)CC1CCC1C2CC[C@]2(C)C(c3cc(C(F)(F)F)n[nH]3)CCC12 (stereo not given in full)	i	-3	7	7	4	-9	112*	6
CN(Cc1ccccc1)C(=O)[C@@H]1CCCN1S(=O)(=O)c1ccc(Cl)cc1	i	-9	-8	2	2	5	·	4
N#Cc1c(N2C(=O)C3C4C=CC(C4)C3C2=O)sc2c1CCC2 (stereo not given)	i	-15	6	0	-3	0	9	11
CC(OC(=O)c1ccc(S(=O)(=O)N(C)c2ccccc2)cc1)C(=O)NCCC1=CCCCC1 (stereo not given)	i	1	3	4	-2	-1	6	-12
COc1cc(/C=C/C(=O)Nc2nc3ccc(S(=O)(=O)N(C)C)cc3s2)cc(OC)c1OC	i	-14	6	-10	0	-4	1	9
Clc1cccc(Cl)c1CON/C=N/c1ncnc2sccc12	i	-43	-7	-9	-13	-28	23	·
CCN=C(NCC)SC1CC(=O)N(CCc2ccccc2)C1=O (stereo not given)	i	7	·	·	0	1	-12	15
CCc1nc(SCc2ccc(Br)cc2)n[nH]1	i	-7	2	-6	-1	1	-2	-12
COCCn1c(-c2ccccc2F)n[nH]c1=S	i	-7	-7	3	2	1	1	·
Cc1ccccc1NS(=O)(=O)c1cc(C(=O)N2CCCC2)ccc1Cl	i	-10	-2	-7	0	0	1	·

Other records follow.
SMILES	Rce1 inh	UUG fidelity	eIF4H inh	PABP FP inh	MT1-MMP act inh	MT1-MMP act inh RFP	CSC inhib	HIV Env fusion	others
O=C(O)c1ccc(-n2cccc2/C=C2/NC(=O)N(c3ccccc3)C2=O)cc1	i	·	97*	84*	-4	0	4	?
COc1cc(F)ccc1S(=O)(=O)n1c(C)nc2ccccc21	i	-14	-7	-2	2	-4	-13	-9
COc1cc(Cn2c(-c3nonc3N)nc3ccccc32)ccc1C	i	10	-7	1	-9	-20	59	60*
CC(C)C(=O)N1CCN(c2ccc(NC(=O)c3ccc4c(c3)OCCO4)cc2)CC1	i	·	1	7	3	-3	·	23
Cc1ccc(C(=O)N2C(=O)C(c3ccccc3)Oc3ccccc32)cc1 (stereo not given)	i	·	2	0	2	3	14	14
Cc1ccc(C)c(CN2C(=O)c3ccccc3S(=O)c3ccc(C(=O)N4CCN(c5ccccn5)CC4)cc32)c1 (stereo not given)	i	·	-5	20	-18	-21	52	-4
CCc1ccccc1NC(=O)CC(NCc1ccccc1)C(=O)O (stereo not given)	i	0	1	1	1	4	-2	-3
Cc1ccccc1Cn1nc(C)c(NC(=O)C2(C)CC2(Cl)Cl)c1C (stereo not given)	i	·	-4	-13	1	5	-1	9
Cc1nc(Nc2ccc(Cl)cc2Cl)sc1C(=O)Nc1ccccc1	i	·	-10	0	-5	-5	83*	4
Cc1ccc2oc3c(c(=O)c2c1)C(c1cccc(O)c1)N(c1ccccn1)C3=O (stereo not given)	i	-6	-2	-8	-3	-5	-20	-10
COCCn1nnnc1C(c1cc2cc(C)ccc2[nH]c1=O)N1CCc2ccccc21 (stereo not given)	i	-9	-3	-1	-8	-2	-6	-31
CC(C)CCN(C(=O)c1cc(=O)[nH]c2ccccc12)c1c(N)n(Cc2ccccc2)c(=O)[nH]c1=O	·	-3	·	·	3	6	-12	·
COC(=O)C(C)Oc1cc(OC(C)C(=O)OC)c2c(C)c(Cl)c(=O)oc2c1 (stereo not given)	i	4	-7	-12	-4	-5	-2	17
COc1cc(C(=O)N/N=C/c2cn(Cc3ccccc3)c3ccccc23)ccc1O	i	-17	2	-14	4	-3	6	-8
CCOc1ccc(-c2nn[nH]n2)cc1	i	·	6	12	4	2	-14	-88
Cc1cnc2c(C(=O)O)cnn2c1	i	·	0	23	1	6	0	-2
CCCOc1ccc(-c2nn(-c3ccccc3)cc2/C=C2\SC(=S)N(C3CCS(=O)(=O)C3)C2=O)cc1 (stereo not given)	i	-16	1	-2	-46	0	-1	·
CC1CC(=O)N(CC(=O)Nc2cccc(F)c2)c2ccccc2S1(=O)=O (stereo not given)	i	-7	-7	8	-1	0	15	-2
O=C(/C=C/c1cc([N+](=O)[O-])ccc1OC(F)F)Nc1cccc([N+](=O)[O-])c1	i	·	1	-2	4	-1	·	?
CN(c1ncc(C(F)(F)F)cc1Cl)n1cc(C(N)=O)c2ccccc2c1=O	i	-10	4	2	-1	-3	-27	·
CCCCN(C(=O)c1ccc(C#N)cc1)c1c(N)n(CCC)c(=O)[nH]c1=O	i	-3	-11	2	1	4	-18	2
COc1ccc(NC(=O)c2cnn3c(C(F)(F)F)cc(-c4ccco4)nc23)cc1OC	i	-18	7	-2	1	0	2	·
CCCc1cc2c(cc1NC(=O)c1ccccc1C)OCO2	i	-20	4	0	0	5	-6	·
Cc1cc(C)c(S(=O)(=O)Nc2nnc(C3CCCCC3)s2)c(C)c1	i	14	-1	-2	0	5	17	-2
CCOc1ccc2c(c1)[nH]c(=S)n2C	i	-21	1	11	2	2	-5	-12

In the list so far, three have a cyano group:
SMILES	Rce1 inh	UUG fidelity	eIF4H inh	PABP FP inh	MT1-MMP act inh	MT1-MMP act inh RFP	CSC inhib	HIV Env fusion	others
Cc1ccc(S(=O)(=O)N2[C@@H](c3ccc(C#N)cc3)C(C(=O)O)=C[C@H]2CC2CCCC2)cc1	·	2	·	·	6	1	·	9
N#Cc1c(N2C(=O)C3C4C=CC(C4)C3C2=O)sc2c1CCC2 (stereo not given)	i	-15	6	0	-3	0	9	11
CCCCN(C(=O)c1ccc(C#N)cc1)c1c(N)n(CCC)c(=O)[nH]c1=O	i	-3	-11	2	1	4	-18	2

A section from the list above:
SMILES	Rce1 inh	UUG fidelity	eIF4H inh	PABP FP inh	MT1-MMP act inh	MT1-MMP act inh RFP	CSC inhib	HIV Env fusion	others
Cc1cc(C)c(S(=O)(=O)Nc2nnc(C3CCCCC3)s2)c(C)c1	i	14	-1	-2	0	5	17	-2
CCOc1ccc2c(c1)[nH]c(=S)n2C	i	-21	1	11	2	2	-5	-12
